Compound activity (PubChem BioAssay)
Ba CapD inh = CapD enzyme inhibition. z-score (test concentration not listed). purified CapD enzyme, fluorescence intensity read-out; active compounds read low; some hits fall short of the stated cut. AID 492967. 140,000 compounds, 0.23% hits;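 active = z-score under -4 in either of two replicates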;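 also: stock transfer was 100 nL into about 40 µL; score is relative to mean and spread of the plate; one replicate is shown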
AID504770 = growth inhibitors of E. coli YBA685 in a screen for V. cholerae RctB (chromosome II replication) inhibitors | E. coli YBA685 rctB-dependent plasmid, OD600 growth, 3 h; active compounds read low | z-score (concentration not given with the values) | 130,000 compounds, 0.27% hits | AID 504770;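 active = z-score under -2 on both plates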;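 also: wells of about 30 µL received 100 nL stock; score is relative to mean and SD of the test wells; the first replicate is given; strong numbers were not always called active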
Starred values were filed as active, the others as inactive.

`Cc1nn(-c2ccccc2)c(C)c1/C=N/NC(=O)c1cccc(Cl)c1` gave Ba CapD inh -1.4.
`COc1ccc(C(=O)CSc2n[nH]c(-c3ccco3)n2)cc1C` gave Ba CapD inh -0.28.
Screening Cc1scc(-c2ccccc2)[n+]1CCO returned AID504770 -0.25.
Cc1cc(C(=O)Oc2ccc(C#N)cc2)c(C)s1 was read as AID504770 -0.2.
For CC(C(=O)Oc1ccc2c(c1)OCO2)N1C(=O)c2ccccc2C1=O (stereo not given) the results were AID504770 -0.25.
CSc1nc(C)c(CCC(=O)O)c(C)n1 was read as AID504770 -0.15.
O=C(CSc1nc2c(c(=O)n1-c1ccc(F)cc1)SCC2)N1CCC(Cc2ccccc2)CC1 was read as Ba CapD inh 0.85.
`O=C(NCCc1csc2nc(-c3ccccc3)nn12)c1cccs1` gave Ba CapD inh 0.01 and AID504770 1.4.
For COC(=O)c1sc(-c2ccc(F)cc2)cc1NC(=O)C(F)(F)F the results were Ba CapD inh 6.7 and AID504770 0.7.
CCOc1cc(C2CC(=O)Nc3c2ccc2ccccc32)ccc1OC(=O)C1CCCCC1 (stereo not given) was read as Ba CapD inh 0.88.
`COc1ccc(CNc2ccc3cn[nH]c3c2)c(OC)c1C` gave Ba CapD inh 9.2 and AID504770 0.75.
`COc1ccc(-c2csc(Cc3nnc(N4CCOCC4)n3-c3ccccc3)n2)cc1` gave AID504770 -0.95.
Screening O=C(NC1(O)C(=O)c2ccccc2C1=O)c1cnn(-c2ccccc2)c1C(F)(F)F returned Ba CapD inh -0.56 and AID504770 -1.4.
Screening CC(C)(C)C1CCC(C(=O)On2c(-c3cccc(Cl)c3)nc3ccccc3c2=O)CC1 (stereo not given) returned Ba CapD inh -0.14.
For CCCCc1nnc(N)s1 the results were Ba CapD inh 0.055 and AID504770 0.45.
Cc1cccc(CCNC(=O)c2cc3c(C)nc4ccccc4c3o2)c1 was read as Ba CapD inh 0.53 and AID504770 -0.5.
For CC(NC(=O)C1CCCN(C(=O)c2cc3sccc3n2C)C1)C12CC3CC(CC(C3)C1)C2 (stereo not given) the results were Ba CapD inh -0.57 and AID504770 -0.5.
CN(C)/C=N/N1CC(O)=C(c2nc3ccccc3s2)C1=N was read as AID504770 0.4.
For CC1=C(C(=O)N2CCCCC2)C(c2ccc(O)cc2)C2=C(CC(C)(C)CC2=O)N1 (stereo not given) the results were Ba CapD inh 0.14 and AID504770 -0.75.
For CCOC(=O)COc1ccc2c3c(c(=O)oc2c1)CCC3 the results were Ba CapD inh 12 and AID504770 1.9.
For O=C(CCCn1sc2ccccc2c1=O)NCCc1ccccc1 the results were Ba CapD inh -0.89 and AID504770 -0.05.
Screening CC(C)(C)c1cc(C(N2CCCCC2)P(=O)(c2ccccc2)c2ccccc2)cc(C(C)(C)C)c1O (stereo not given) returned Ba CapD inh -0.17.
For O=C(COC(=O)c1cccc(F)c1)Nc1cc(Cl)cc(Cl)c1 the results were Ba CapD inh 0.45 and AID504770 -0.2.
CN=c1scc(C)n1/N=C/c1c(Cl)cccc1Cl was read as Ba CapD inh 9.1 and AID504770 -0.15.
`CCCCN(C(=O)c1ccccc1)c1ccccc1` gave Ba CapD inh 0.12 and AID504770 -0.3.
`N#CC1=C(N)NC(SCC(=O)Nc2ccc(Br)cc2)=C(C#N)C12CCCCC2` gave AID504770 -0.45.
For CN1c2ccsc2C(=O)/C(=C\Nc2ccccn2)S1(=O)=O the results were Ba CapD inh -0.57 and AID504770 1.1.
Screening COC(=O)C1=C2C(=O)NCCN2C2=C(C(=O)CCC2)C1c1ccc(OC)c(OC)c1 (stereo not given) returned Ba CapD inh -0.41 and AID504770 -0.6.
CC1(C)COC(=O)C1OC(=O)c1ccccc1 (stereo not given) was read as Ba CapD inh -0.22 and AID504770 0.55.
Screening O=C(C1CCCN1S(=O)(=O)c1cccc2nsnc12)N1CCN(Cc2ccc3c(c2)OCO3)CC1 (stereo not given) returned AID504770 0.3.

2 consecutive records already listed:
CC1(C)COC(=O)C1OC(=O)c1ccccc1 (stereo not given) was read as Ba CapD inh -0.22 and AID504770 0.55.
Screening O=C(C1CCCN1S(=O)(=O)c1cccc2nsnc12)N1CCN(Cc2ccc3c(c2)OCO3)CC1 (stereo not given) returned AID504770 0.3.

Retrieved by structure from the list above, 7 records:
CC1(C)COC(=O)C1OC(=O)c1ccccc1 (stereo not given) was read as Ba CapD inh -0.22 and AID504770 0.55.
`N#CC1=C(N)NC(SCC(=O)Nc2ccc(Br)cc2)=C(C#N)C12CCCCC2` gave AID504770 -0.45.
Screening COC(=O)C1=C2C(=O)NCCN2C2=C(C(=O)CCC2)C1c1ccc(OC)c(OC)c1 (stereo not given) returned Ba CapD inh -0.41 and AID504770 -0.6.
Screening O=C(C1CCCN1S(=O)(=O)c1cccc2nsnc12)N1CCN(Cc2ccc3c(c2)OCO3)CC1 (stereo not given) returned AID504770 0.3.
`CCCCN(C(=O)c1ccccc1)c1ccccc1` gave Ba CapD inh 0.12 and AID504770 -0.3.
Screening CC(C)(C)c1cc(C(N2CCCCC2)P(=O)(c2ccccc2)c2ccccc2)cc(C(C)(C)C)c1O (stereo not given) returned Ba CapD inh -0.17.
For CN1c2ccsc2C(=O)/C(=C\Nc2ccccn2)S1(=O)=O the results were Ba CapD inh -0.57 and AID504770 1.1.

The listing continues:
CC(C)(C)OC(=O)C1CCC(C(=O)Oc2ccc3c4c(c(=O)oc3c2)CCCC4)CN1 (stereo not given) was read as Ba CapD inh 2.3 and AID504770 0.1.
Screening Cc1ccnc(NS(=O)(=O)c2ccc(N=Cc3c(O)n(C)c(=O)n(C)c3=O)cc2)n1 returned AID504770 -0.65.
`Cc1cc(NC(=O)CCn2ccc(C)n2)c2ccccc2n1` gave Ba CapD inh -0.95 and AID504770 0.35.
For OCCNc1ncnc2c1sc1nc(-c3ccccc3)c3c(c12)CCCC3 the results were Ba CapD inh 21 and AID504770 -0.35.
Screening CC12CN(S(=O)(=O)c3ccccc3)CC(C)(CN(S(=O)(=O)c3ccccc3)C1)C2 returned Ba CapD inh 0.16 and AID504770 0.05.
C=CCOc1ccc(/C=C/C(=O)N2CCN(S(=O)(=O)c3cccs3)CC2)cc1 was read as AID504770 -0.05.
`FC(F)(F)c1ccc2nnnn2c1` gave Ba CapD inh -0.97 and AID504770 1.2.
`COC(=O)C1C(=O)NC(SCC(=O)Nc2ccc(C(C)=O)cc2)=C(C#N)C1c1ccc(Cl)cc1` (stereo not given) gave Ba CapD inh -0.64.
Screening O=C(CSc1ccccc1)Nc1cccc(C(=O)O)c1 returned Ba CapD inh 0.17 and AID504770 2.
Cc1cccc(C(=O)N2CCc3c([nH]c4ccccc34)C2c2ccccc2)c1 (stereo not given) was read as Ba CapD inh -0.47.
Screening Cc1nccn1-c1cc(C(C)C)c(C#N)c2nc3ccccc3n12 returned AID504770 -0.4.
For COC(=O)c1ccc(OCC(O)CN2CCC(Cc3ccccc3)CC2)cc1 (stereo not given) the results were Ba CapD inh 0.68 and AID504770 0.4.
O=C1CCc2nc3ccccc3n21 was read as AID504770 1.5.
Screening CC(=O)Nc1ccc(S(=O)(=O)NC(C)C(C)(C)C)cc1 (stereo not given) returned Ba CapD inh 1.
`Cc1cc(C(=O)OC2CCOC2=O)c(C)n1-c1ccccc1` (stereo not given) gave Ba CapD inh 0.86 and AID504770 1.6.
Screening CCOC(=O)c1cc(CO)c(C)nc1C returned Ba CapD inh -0.14 and AID504770 -0.95.
N#CC1=C(N)N(c2cccc(C(F)(F)F)c2)C2=C(C(=O)CCC2)C1c1ccc2c(c1)OCO2 (stereo not given) was read as Ba CapD inh -0.17.
For Clc1ccc(C2Nc3ccccc3C(c3ccccc3)(c3ccccc3)O2)cc1Cl (stereo not given) the results were Ba CapD inh -0.085.
For Cc1ccccc1COC(=O)N1CCCC1C(=O)OCc1ccc([N+](=O)[O-])cc1 (stereo not given) the results were Ba CapD inh -1.2.
Screening COc1cccc(C(=O)Nc2ccc(/C=C/c3nc4ccccc4o3)cc2)c1 returned Ba CapD inh 65.
O=C(COc1ncnc2cc(Cl)ccc12)c1ccc(F)cc1 was read as Ba CapD inh -0.2 and AID504770 -1.1.
Screening CCCCNc1nc(SCC(=O)NCc2ccco2)nc2ccccc12 returned Ba CapD inh -0.58.
Screening CCOC(=O)c1sc2ncn(/N=C/N(C)C)c(=O)c2c1C returned Ba CapD inh 1.3 and AID504770 0.5.
`COc1ccc(N2C(=O)C3C4C=CC(CC4)C3C2=O)c([N+](=O)[O-])c1` (stereo not given) gave Ba CapD inh -0.18.
Cc1c(C#N)c(NC(=O)CN2CCCC2c2cccs2)n(Cc2ccco2)c1C (stereo not given) was read as AID504770 -0.45.
COCCOC(=O)C1=C(C)NC2=C(C(=O)CC(c3ccc(OC)c(OC)c3)C2)C1c1ccc(Cl)cc1Cl (stereo not given) was read as Ba CapD inh 2.7.
CC(C)(C)c1cc2cc(NC(=O)c3cccs3)ccc2[nH]1 was read as Ba CapD inh -0.39.
Screening O=C(c1c[nH]c(C(=O)C(Cl)(Cl)Cl)c1)c1cccc(Cl)c1Cl returned Ba CapD inh -0.48.
CCN1CCN(CCC(=O)Nc2sc(-c3ccccc3)cc2C(=O)OC)CC1 was read as AID504770 -0.1.
For Cc1cccc(Nc2nc3nonc3nc2N2CCC(C)CC2)c1C the results were Ba CapD inh -0.52.
Screening CC1CCC(C(C)C)C(OC(=O)CSc2nnc(-c3cccnc3)n2N)C1 (stereo not given) returned AID504770 1.4.
For O=C(COc1ccc(Br)cc1F)NCCc1ccccn1 the results were AID504770 -0.75.
For CC(=O)NC(=O)c1cc2cc(Br)ccc2oc1=Nc1ccc(C(C)=O)cc1 the results were Ba CapD inh 0.65.
For C/C(=N\n1nnnc1Nc1ccccc1)c1ccccc1Cl the results were Ba CapD inh -0.47 and AID504770 0.3.
Screening N#CCCCn1c(O)c(N=NC(=O)C2COc3ccccc3O2)c2ccccc21 (stereo not given) returned AID504770 -0.25.
Screening COCCNC(=O)c1cc(=O)oc2cc(OCc3ccccc3)ccc12 returned Ba CapD inh 49.
For CC(C)CN(CC(C)C)S(=O)(=O)N1CCC(C(=O)NC(C)C)CC1 the results were Ba CapD inh 0.2 and AID504770 0.45.
`CC(NC(=O)c1ccc2c(c1)OCCO2)c1ccc2c(c1)OCO2` (stereo not given) gave Ba CapD inh 0.49 and AID504770 -0.5.
`Nc1c(C(=O)NCC2CCCO2)c2nc3ccccc3nc2n1Cc1ccco1` (stereo not given) gave AID504770 0.6.
`CC(C)N(Cc1ccccc1)C(=S)Nc1cccnc1` gave Ba CapD inh -0.27 and AID504770 -0.2.
C=CCn1c(N)cc(=O)nc1SCC(=O)N1c2ccccc2Sc2ccccc21 was read as Ba CapD inh -0.02 and AID504770 -0.45.
CS(=O)(=O)c1cnc(-c2ccc(Oc3ccc(C(F)(F)F)cn3)cc2)nc1-c1ccc(Cl)cc1 was read as Ba CapD inh 0.05.
COC(=O)CCS(=O)(=O)c1ccc(Br)cc1 was read as Ba CapD inh 0.53 and AID504770 0.15.
CCC(C)c1ccc(NC(=O)c2cc3ccccc3o2)cc1 (stereo not given) was read as Ba CapD inh -0.68 and AID504770 0.5.
Screening CNc1c(C)n(C)n(-c2ccccc2)c1=O returned Ba CapD inh -0.88 and AID504770 -0.3.
For CC(C)(C)Nc1nc(NC(C)(C)C)nc(N2CCNCC2)n1 the results were Ba CapD inh 0.22 and AID504770 -0.4.
CC(C)Oc1ccc(C(=O)NCc2ccco2)cc1 was read as Ba CapD inh 0.74 and AID504770 0.65.
`Cc1ccc(C(=O)N[C@H](C(=O)NC2CCCCC2)C(C)C)cc1` gave AID504770 -0.9.
Screening O=C(COCC(=O)N1CCCc2ccccc21)N1CCCc2ccccc21 returned Ba CapD inh -0.15 and AID504770 0.4.
For COc1ccc(OCc2nnc(SC(C)c3nc4ccccc4c(=O)[nH]3)n2C)cc1 (stereo not given) the results were AID504770 1.9.
CCOC(=O)N1CCN(C(=O)COC(=O)C(C)N=C2NS(=O)(=O)c3ccccc32)CC1 (stereo not given) was read as AID504770 0.15.
Cc1cc(NC(=O)c2ccccc2)n(CCOC(=O)c2ccccc2)n1 was read as Ba CapD inh -0.16 and AID504770 -0.85.
`CNc1ccc(Cl)cc1C(=O)NC(C)(C)C` gave Ba CapD inh 84.
For CCSCCOC(=O)C1=C(C)N(C)C(=O)NC1c1cc2c(cc1[N+](=O)[O-])OCO2 (stereo not given) the results were Ba CapD inh -0.025.
`CC1=C(C(=O)OC2CCCC2)C(c2ccc(C)c([N+](=O)[O-])c2)C2=C(CC(c3cccs3)CC2=O)N1` (stereo not given) gave Ba CapD inh -0.35.
Screening COc1ccc(C2C(C(N)=O)C(=O)NC(O)(c3ccccc3)C2C#N)cc1 (stereo not given) returned Ba CapD inh 0.51 and AID504770 0.25.
CCCN1CCN(C(=O)c2sc3ncnc(N4CCc5ccccc5C4)c3c2C)CC1 was read as Ba CapD inh 0.02.
For CCN(CC)c1ccc(C(=O)Nn2c(-c3ccc(OC)c(OC)c3)nc3ccccc3c2=O)cc1 the results were Ba CapD inh -0.26.
`CC(=O)Nc1c(O)nc(SCC(=O)N(C2CCCCC2)C2CCCCC2)[nH]c1=O` gave AID504770 -0.3.
`COc1cccc(/C=C/C(=O)N2CCN(c3n[nH]c(=O)[nH]c3=O)CC2)c1OC` gave AID504770 -0.1.
Cc1cccc(N2C(=O)CS/C2=N\NC(=O)c2cccnc2)c1C was read as AID504770 2.3.
For COc1ccc(-c2nnn(CC(=O)N(CC3CCCO3)C(C(=O)NC3CCCCC3)c3cccs3)n2)cc1 (stereo not given) the results were AID504770 -0.65.
NC(=O)C12CCC3CC(CC(C3)C1)C2 was read as Ba CapD inh -0.085 and AID504770 -0.65.
CN(CCNc1nc(-c2ccccc2)no1)Cc1ccccc1 was read as Ba CapD inh 0.27 and AID504770 -0.3.
`CCOc1ccc(S(=O)(=O)NCC(C)(C)N2CCOCC2)cc1` gave AID504770 1.1.
Screening Cc1c(C(=O)Nc2ccc(Oc3ccc(Cl)cc3)cc2)sc2ncn(CC(=O)N3CCCC(C)C3)c(=O)c12 (stereo not given) returned Ba CapD inh -0.8.

Not a hit list; 0.39% or so of the library scored in one or more.
